INS promoter inh = TRM-6 insulin promoter activity inhibition. 130,000 tested, 0.9% active. inhibition, % at 2 µM. AID 1273. TRM-6 cells (human fetal islet line), insulin promoter-eGFP reporter, imaging; reporter expression induced with tamoxifen;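 active = inhibition above the mean plus 3 SD, with well images judged a real hit on visual review, cut at about 60% in these data, passing the limit was not always enough; inconclusive = inhibition over the cutoff but images rejected on review; inactive = inhibition not above the cutoff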
HSV augment = increases HSV replication in cells; HSV replication augmentation in cells, fold increase; maximum fold increase; 220,000 tested, 0.005% active;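 active = peak rise of 1.5-fold or more in the series; inconclusive = self-fluorescent or not available for retest; tested in PC3 cells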;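 also: first round at 10 µM; read as green reporter fluorescence; hits show the peak of a series up to 25 µM; 1 = signal of infected wells without compound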
RGS16-Gao = RGS16-Galphao interaction regulator (human); O15492+P09471; binding response (% of control), % at 10 µM; 220,000 tested, 0.38% active; bead-based flow cytometry RGS16-Galphao binding, fluorescence; actives lie on both sides;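 active = below 25% or above 175%, edge rows of some plates excepted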;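 also: Galphao activated by GDP with aluminum fluoride before binding; 100% = wells without compound and 0% = beads without RGS; some results beyond the cut were filed as inactive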
Target sequence (O15492 whole entry, looked up): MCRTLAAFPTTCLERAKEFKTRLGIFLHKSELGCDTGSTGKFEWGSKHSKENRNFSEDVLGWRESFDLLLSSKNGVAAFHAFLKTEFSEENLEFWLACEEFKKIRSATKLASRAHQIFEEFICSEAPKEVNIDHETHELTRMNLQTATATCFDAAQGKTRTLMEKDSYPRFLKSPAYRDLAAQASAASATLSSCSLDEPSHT
Target sequence (P09471 whole entry, looked up): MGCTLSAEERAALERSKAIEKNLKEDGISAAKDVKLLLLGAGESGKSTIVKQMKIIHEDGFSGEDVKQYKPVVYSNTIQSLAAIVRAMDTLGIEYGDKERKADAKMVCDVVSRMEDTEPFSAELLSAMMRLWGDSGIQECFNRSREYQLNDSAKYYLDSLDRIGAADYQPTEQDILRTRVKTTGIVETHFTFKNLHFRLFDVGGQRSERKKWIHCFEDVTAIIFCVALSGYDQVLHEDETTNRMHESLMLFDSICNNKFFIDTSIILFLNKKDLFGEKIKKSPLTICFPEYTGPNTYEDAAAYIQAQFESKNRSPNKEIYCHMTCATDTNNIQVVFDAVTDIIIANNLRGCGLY
GALR2 agonist = activates the human galanin receptor 2 | O43603 | GALR2-expressing cells, agonist activation read-out | activation, %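 (tested at 5 µM)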 | 140,000 tested, 0.48% active | AID 803;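 active = above mean plus 3 SD of all compounds, about 5% in these data, not always enough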;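 also: 0% = vehicle buffer wells and 100% = reference agonist at full effect; tested in CHO reporter cells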
Target sequence (O43603 whole entry, looked up): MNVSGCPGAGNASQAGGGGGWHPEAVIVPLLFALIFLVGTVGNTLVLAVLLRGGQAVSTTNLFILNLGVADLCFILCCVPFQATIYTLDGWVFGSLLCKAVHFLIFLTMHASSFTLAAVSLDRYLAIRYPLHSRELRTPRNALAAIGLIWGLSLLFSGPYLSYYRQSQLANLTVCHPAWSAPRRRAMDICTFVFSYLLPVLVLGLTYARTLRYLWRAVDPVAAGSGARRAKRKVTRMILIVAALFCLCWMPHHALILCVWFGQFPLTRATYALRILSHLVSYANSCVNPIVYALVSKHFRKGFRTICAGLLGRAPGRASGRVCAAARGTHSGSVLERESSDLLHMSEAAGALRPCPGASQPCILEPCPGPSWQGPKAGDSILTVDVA
PKD1 kinase inh = PKD1 (human) kinase inhibition; Q15139; PKD1 kinase fluorescence polarization assay; inhibition, %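 (about 10 µM by stock and volumes)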; 200,000 tested, 0.056% active;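 active = inhibition of 50% or more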;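 also: controls were vehicle for no effect and a reference inhibitor for full effect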
INS promoter inh cell count = recorded beside INS promoter inh, whose call it bears; normalized cell count, %; measured here: cell count, toxicity; reference of the scale not given here;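 cells exposed to compound for 48 h; stained nuclei by imaging scaled within each plate; lower means fewer cells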
HSV augment primary fold = recorded beside HSV augment, whose call it bears; fold increase; compound at 10 µM; measured here: primary screen fold increase 10 uM; tested in PC3 cells;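 GFP signal in the first replicate; 1 = infected wells without compound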
Numbers without * were called inactive; i = inactive; ? = inconclusive; / = no result given.

SMILES	INS promoter inh	INS promoter inh cell count	HSV augment	HSV augment primary fold	RGS16-Gao	GALR2 agonist	PKD1 kinase inh
Cc1cc(C)c(S(=O)(=O)c2ccccc2)c(OC(=O)c2c(F)cccc2F)n1	56	137	i	0.89	101	/	6
O=C(COC(=O)c1cccs1)Nc1ccccc1[N+](=O)[O-]	/	/	i	0.81	99	/	0
CCn1cc(/C=N\NC(=O)C2(C)CC2(Cl)Cl)c(C)n1 (centres undefined)	-14	172	i	1	103	-1.3	-10
CCc1cc(C(=O)NNC(=O)CCl)sc1C	/	/	i	0.86	91	/	5
Cc1nc(-c2ccccc2)cs1	-12	104	i	0.94	133	-2.6	-2
Cc1ccc(CNC(=O)CCS(=O)(=O)c2cc(Br)cc3c2N(C(=O)C2CC2)CC3)o1	/	/	i	0.92	97	-1.3	-2
Nc1nc(Nc2cccc(F)c2)nc(NCc2ccco2)c1[N+](=O)[O-]	/	/	i	0.79	94	/	/
O=C(CSCc1ccccc1)N1CCc2ccccc21	0	93	i	0.89	104	-3.9	0
CCOc1ccccc1-n1c(SCC(=O)NC(C)(C)C)nnc1-c1ccoc1C	-11	67	i	1.1	99	-2.2	6
Cc1cccc(-n2c(=S)[nH]c3sc4c(c3c2=O)CCc2ccccc2-4)c1	25	100	i	1.1	86	/	6

The closing 3 compounds of the section above open the next one.
SMILES	INS promoter inh	INS promoter inh cell count	HSV augment	HSV augment primary fold	RGS16-Gao	GALR2 agonist	PKD1 kinase inh
O=C(CSCc1ccccc1)N1CCc2ccccc21	0	93	i	0.89	104	-3.9	0
CCOc1ccccc1-n1c(SCC(=O)NC(C)(C)C)nnc1-c1ccoc1C	-11	67	i	1.1	99	-2.2	6
Cc1cccc(-n2c(=S)[nH]c3sc4c(c3c2=O)CCc2ccccc2-4)c1	25	100	i	1.1	86	/	6
COc1ccc(NS(=O)(=O)c2ccc(C(=O)N3CCN(Cc4ccccc4)CC3)cc2)cc1	0	50	i	0.76	105	/	2
COc1ccc(C(=O)N2CCC(O)(c3ccc(Cl)cc3)CC2)cc1OC	/	/	i	0.99	100	/	/
Cc1cccc(N2CCN(C(=O)CCCSc3nc4ccccc4[nH]3)CC2)c1C	38	54	i	0.68	101	0.0	-3
CC(=O)C(C(C)=O)C1(O)C(=O)c2ccccc2C1=O	-64	83	i	0.97	61	-0.4	-3
O=c1oc(-c2cccnc2)nc2ccccc12	/	/	i	1.2	107	-1.5	-5
CCC/C=N/NC(=O)c1cc(-c2ccccc2)nc2ccccc12	40	82	i	0.95	98	-1.6	2
CCCCCCCCn1cnc2c(N)c(C)c(C)cc21	-6	39	i	0.81	55	-0.5	-9
C=CCn1c(SCC(=O)NC(=O)NC)nnc1C1CCCCC1	/	/	i	1.1	101	/	3
O=C(CN1CCc2ccccc2C1)Nc1ccc(F)cc1F	6	83	i	0.98	103	/	3
COc1ccc(CCNCC(O)COc2cccc(Br)c2)cc1 (centres undefined)	/	/	i	1	97	/	-5

Ordered by SMILES length (rising): part of the list above.
SMILES	INS promoter inh	INS promoter inh cell count	HSV augment	HSV augment primary fold	RGS16-Gao	GALR2 agonist	PKD1 kinase inh
CCCCCCCCn1cnc2c(N)c(C)c(C)cc21	-6	39	i	0.81	55	-0.5	-9
O=C(CN1CCc2ccccc2C1)Nc1ccc(F)cc1F	6	83	i	0.98	103	/	3
COc1ccc(C(=O)N2CCC(O)(c3ccc(Cl)cc3)CC2)cc1OC	/	/	i	0.99	100	/	/
Cc1cccc(N2CCN(C(=O)CCCSc3nc4ccccc4[nH]3)CC2)c1C	38	54	i	0.68	101	0.0	-3

Carrying on:
SMILES	INS promoter inh	INS promoter inh cell count	HSV augment	HSV augment primary fold	RGS16-Gao	GALR2 agonist	PKD1 kinase inh
Cc1ccc2[nH]c(=O)c(CN(Cc3ccccc3Cl)C(=O)N3CCOCC3)cc2c1	-30	95	i	0.85	105	-2.1	-1
CCn1c(-c2ccccc2)ccc(C#N)c1=O	-16	101	i	0.99	101	-2.8	-3
C=CCn1cc(C(=O)OC)c(=O)c2cc(S(=O)(=O)N(CC)CC)ccc21	-46	79	i	0.75	106	-2.1	-4
CCOC(=O)C(=Cc1ccc(F)cc1)C(=O)OCC	-19	118	i	0.63	105	0.4	-1
Cc1noc(C)c1CN1C(=O)NC2(CCc3ccccc3C2)C1=O (centres undefined)	/	/	i	1	99	-2.7	-3
CCOC(=O)c1[nH]c(COC(=O)c2ccccc2NC(=O)c2ccco2)c(C(=O)OCC)c1C	32	30	i	0.99	101	0.1	-4
CCCCCC(=O)Nc1ccc(N2CCN(C(=O)CCC)CC2)cc1	73	95	i	0.88	100	-0.7	-4
Cc1nc(-c2ccccn2)sc1C(=O)Nc1ccc(F)cc1F	-18	114	i	0.87	101	-1.3	-5
Oc1oc(-c2ccccc2)nc1C=NCc1ccncc1	3	107	i	0.91	108	-0.5	-12
COc1ccc2c(c1)CCc1cn3nc(C)cc3nc1-2	/	/	i	1.1	100	/	7
O=C(C1CCCN(S(=O)(=O)c2cccc3nonc23)C1)N1CCN(c2ccccc2)CC1 (centres undefined)	0	67	i	0.83	104	-1.7	1
Cc1noc(NS(=O)(=O)c2ccc(NC(=O)CCCOc3ccc(Cl)cc3Cl)cc2)c1C	71	114	i	1	109	-1.1	5
COC(=O)C1=C(C(=O)OC)[C@@H]2N(C)c3ccccc3[C@@]23C[C@@H](CO)N(C(=O)NCCBr)C3=N1	/	/	i	0.96	98	/	/
O=C(NCc1ccc(N2CCCC2=O)cc1)Nc1ccccc1	31	156	i	0.98	108	-2.2	-5
O=c1[nH][nH]c2cc(=O)n(-c3ccc(Cl)cc3)nc12	6	116	i	0.95	101	/	12
COCc1cc(=O)[nH]c(=S)[nH]1	2	60	i	0.95	112	-1.4	5
Cc1ccc(N2CCN(CCCCN3C(=O)C4CCCN4C3=O)CC2)cc1 (centres undefined)	8	116	i	0.89	103	-0.4	-4
CC(C)OCCCNC(=O)CNC(=O)c1cccs1	/	/	i	1	122	-2.1	8
COc1ccc(-c2nc(-c3cccnc3)no2)cc1OC	/	/	i	0.97	101	/	/
CCc1nnc(NC(=O)CSc2nnc(-c3cccnc3)n2CC)s1	11	123	i	0.95	66	0.1	-6
COC(=O)c1ccccc1NC(=O)CNc1cc(Cl)ccc1N1CCOCC1	-58	75	i	0.91	78	-0.4	3
CCOC(=O)C1CCCN(C(=O)c2ccc(Cl)c(S(=O)(=O)N3CCCCC3)c2)C1 (centres undefined)	-38	93	i	1.1	102	/	-3
COC(C[C@H](O)C[C@@H](O)COCc1ccccc1)OC	/	/	i	1.1	103	/	/
COC(=O)/C(=C/c1cccnc1)NC(=O)c1ccccc1	/	/	i	1.2	172	-0.9	0
CC(=O)SCCC(=O)Nc1ccccc1	-188	95	i	0.98	102	-1.4	-11
CCc1ccc(/C=C2\SC(=S)N(CCCC(=O)Nc3nccs3)C2=O)cc1	/	/	i	0.96	105	-2.9	2
O=S(=O)(Nc1nc2ccc(S(=O)(=O)N3CCCC3)cc2s1)c1ccc(F)cc1	42	97	i	0.55	101	-2.4	4
O=C(NC(=S)NNC(=O)[C@H]1C[C@@H]1c1ccccc1)c1cccc(F)c1	/	/	i	0.99	100	/	/
Clc1ccc(Cc2nnc(-c3cccs3)o2)cc1	0	126	/	/	99	-0.2	-6
O=C(COC(=O)c1ccc([N+](=O)[O-])s1)NCc1ccccc1	/	/	i	0.82	101	1.6	-6

Some values from the entries so far.
Oc1oc(-c2ccccc2)nc1C=NCc1ccncc1 – RGS16-Gao = 108
COC(=O)/C(=C/c1cccnc1)NC(=O)c1ccccc1 – PKD1 kinase inh = 0
CCc1ccc(/C=C2\SC(=S)N(CCCC(=O)Nc3nccs3)C2=O)cc1 – RGS16-Gao = 105

More compounds follow.
SMILES	INS promoter inh	INS promoter inh cell count	HSV augment	HSV augment primary fold	RGS16-Gao	GALR2 agonist	PKD1 kinase inh
CCOC(=O)Cn1nnnc1CN(Cc1ccccc1)Cc1cc2cc(CC)ccc2[nH]c1=O	15	59	i	0.97	99	-0.8	6
CC(=O)Nc1ccc(S(=O)(=O)NCC(=O)OC(C)c2ccccc2Cl)cc1 (centres undefined)	11	74	i	0.97	82	-0.9	5
O=C(NCC1COc2ccccc2O1)c1ccco1 (centres undefined)	/	/	i	1.1	83	-1.6	12
COc1ccc(C(=O)Nc2nc3nc(-c4ccccc4)cc(=O)n3[nH]2)cc1	-15	102	i	1.1	104	-2.0	-5
CC(=O)N1CCN2C(=O)C1CCCC(=O)c1cc(C(C)C)ccc12 (centres undefined)	38	151	i	1	107	-1.4	-3
CC(C)OP(=O)(OC(C)C)C(NC(=O)c1ccccc1Br)C(N)=O (centres undefined)	/	/	i	1.3	92	/	/
CCOc1cc(NC(=O)CCl)c(OCC)cc1NC(=O)CCl	/	/	i	0.72	96	/	/
NS(=O)(=O)c1ccc(CCN2C(=O)/C(=C\c3ccc(Cl)cc3)SC2=S)cc1	-52	113	i	0.56	103	-0.2	4
CC1=CN2CC(O)CN=C2C=C1 (centres undefined)	-23	77	i	0.95	/	-1.1	0
Cc1ccccc1C(C(=O)NC1CCCC1)N(C(=O)CNC(=O)c1ccco1)c1cccnc1 (centres undefined)	/	/	i	0.99	96	/	1
CC(C)(C)NC(=O)NC(=O)COC(=O)Cc1coc2ccc3ccccc3c12	-52	76	i	1	151	-1.2	-1
Cc1ccc(C)c(Oc2cc(NC(=O)CCCn3nc(C)c([N+](=O)[O-])c3C)cc([N+](=O)[O-])c2)c1	-144	107	i	0.64	109	-1.6	-4
O=C(CCc1ccccc1)Nc1c(F)cccc1F	-21	140	i	0.98	/	-0.6	-8
O=C(c1ccc2ccccc2n1)N1CCN(c2ccccc2Cl)CC1	-8	103	i	1	104	/	-5
N#CC1=C(N)Oc2n[nH]c(-c3ccccc3)c2C1c1ccncc1 (centres undefined)	/	/	i	0.83	100	-1.2	7
S=C(NCCc1ccccc1)NCCc1ccccc1	-9	56	i	0.99	111	-0.7	2
COc1cccc(Nc2nnc(SCC(=O)N(CC(C)C)CC(C)C)s2)c1	-26	309	i	0.84	98	-1.9	-6
C=CCN1C(=O)S/C(=C/c2ccc(Sc3nc4ccccc4[nH]3)o2)C1=O	22	95	i	0.96	81	-1.6	1
CCS(=O)(=O)c1nn2c(N)c(/C=C3/C=CC(=O)C(OC)=C3)c(=O)nc2s1	-23	122	?	/	103	-0.8	0
COC(=O)CNC(=O)CSc1nnc(-c2ccc(OC)cc2)n1CC(C)C	-50	101	i	0.95	108	-3.0	4
O=C(Nc1ccc(CN2CCCCC2)cc1)Nc1ccc(Br)cc1Cl	46	99	i	0.67	101	/	0
CN(CC(=O)NCc1ccc2c(c1)OCO2)S(=O)(=O)c1ccc(Br)s1	-36	164	i	0.88	77	-2.9	-1
CC1=CC(C)C2C(=O)N(c3ccccc3)NC(=O)C2C1 (centres undefined)	-4	72	i	1.2	71	-1.4	-3
CNc1ccccc(-c2ccc3ccccc3n2)c1=O	-15	97	i	1.2	108	-1.0	-12
Cc1ccc(-c2ccc(C(=O)Nc3ccccc3)o2)c2ccccc12	-68	46	i	0.85	73	-2.7	2
O=C(c1ccc(N2CCOCC2)nc1)N1CCCCC1	/	/	i	0.91	100	-1.3	3
COCCNC(=S)N/N=C(\C)c1cccc(OC)c1	/	/	i	0.94	97	/	-3
O=Nc1ccc(NOC(=O)c2ccccc2Br)cc1	-15	92	i	0.87	101	-1.6	-4
O=C(O)CCCNC1=NCCC1	15	113	i	0.89	102	-1.4	-3
Cc1cccc(OCC(=O)N/N=C/c2cccn2C)c1	/	/	i	1.1	101	/	/
CCn1ncc(C2=NOC(C(=O)NCCc3ccccc3)C2)c1C (centres undefined)	/	/	i	0.92	104	-1.0	-9
CC1CCCC(C)N1C(=O)CN1C(=O)C(C)(C)Oc2ccc(C(=O)NC3CCCC3)cc21 (centres undefined)	-52	139	i	0.71	/	1.2	1
CC(C)(C)/C=N/NC(=O)CNC(=O)c1ccc2c(c1)OCCO2	-67	128	/	/	111	-0.4	-8
O=C(Nc1ccccc1)OCc1cc(-c2ccc(Cl)cc2)on1	/	/	/	/	/	0.1	1
NC(=O)CSc1nnc(Cn2cnc3ccccc32)o1	-15	104	i	0.98	98	/	-6
Cc1ccc(NC(=S)Nc2ccc(OC(F)F)c(Cl)c2)cc1F	/	/	i	0.86	102	/	-6
Cc1ccc(/C=N/NC(=O)c2ccncc2)s1	/	/	i	0.95	109	/	/
COc1ccc(NC2=NCC(Cc3ccc(Br)cc3)S2)cc1 (centres undefined)	-23	169	i	0.81	102	1.0	-2
Oc1ccc2ccccc2c1/C=N/n1cnnc1	11	148	i	0.84	101	0.3	-2
O=C(NCCCO)/C(=C\c1cn(-c2ccccc2)nc1-c1cccnc1)NC(=O)c1ccccc1	19	69	i	0.91	110	-1.3	3
